From PubChem BioAssay
NPYLR7 ag – mosquito NPYLR7 agonism; HEK293T NPYLR7/Galpha15, GCaMP6s calcium fluorescence; activation, % at 10 µM; 270,000 compounds, 0.15% hits; AID 1259423; in the data active means activation above about 40%;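 further: 0% = vehicle and 100% = reference agonist at the receptor; some compounds past the cut are filed as inactive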
NPYLR7 ag max-min – recorded beside NPYLR7 ag, whose call it bears; activation, %; measured here: Max-Min RFU normalised activation; some inactives read as strong as hits;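 span of the calcium signal over five minutes; 0% = vehicle and 100% = native peptide agonist; compound fluorescence can raise it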
* marks the source's active call; other numbers are inactive results; & = joins results of further samples. The list is partial (hit frequency here may not be typical).

1: Oc1[nH]c2ccc(Br)cc2c1N=NC(=S)NCC1CCCO1 (stereo not drawn)
2: O=C(NCc1ccccc1)Nc1ccc(N2CCCC2)c(C(=O)NCc2ccccc2)c1
3: CC(=O)c1ccc(-n2c(-c3cc(-c4ccsc4)n[nH]3)n[nH]c2=S)cc1
4: CCOC(=O)c1cc(-c2ccc(Cl)cc2)n(-c2ccc(C(=O)N3CCCCC3CC)cc2)n1 (stereo not drawn)
5: CC(C)c1nccn1CCCNC(=O)c1ccc(-c2cccc3cccnc23)nc1
6: Cc1cc(C)n2nc(-c3cccnc3)nc2n1
7: Cc1c(C(=O)NCc2ccc3c(c2)OCCO3)sc(=O)n1Cc1ccc(C(F)(F)F)o1
8: CCC(=O)Nn1cnc2c(cnn2-c2ccc(C)c(C)c2)c1=O
screen / no.,1,2,3,4,5,6,7,8
NPYLR7 ag,0.1,6.9&27.7,-13.9,2.2,13.6,-0.6,11.0,7.0
NPYLR7 ag max-min,-5.4,6.3&25.5,-14.7,4.9,4.9,-2.5,3.0,2.5

9: Cc1ccc(C)n1-c1ccc(C(=O)N2CCCN(C3CC3)CC2)cc1
10: CC1CCN(Cc2nnnn2CC(=O)N2CCCC(OCc3cccnc3)C2)CC1 (stereo not drawn)
11: Cc1n[nH]c(C)c1S(=O)(=O)N1CCC(C)CC1
12: CCOC(=O)C(=O)N1CCN(CC(OCc2ccc(C(F)(F)F)cc2)c2ccc(Cl)cc2)CC1 (stereo not drawn)
13: COc1ccccc1N1CCN(C(=O)C(C)C)C(C)C1=O (stereo not drawn)
14: CCC(Oc1ccccc1C(C)C)C(=O)N1CCCN(C(C)=O)CC1 (stereo not drawn)
15: CC1(C)O[C@@H]2C[C@@](OCc3cccc(Cl)c3)(C(=O)NCCN3CCOCC3)CC(OCc3ccccc3C#N)[C@@H]2O1 (stereo partly drawn)
16: Cc1ccc(-n2nnnc2CNS(=O)(=O)c2cccc(C(F)(F)F)c2)cc1C
screen / no.,9,10,11,12,13,14,15,16
NPYLR7 ag,11.9,-0.9,10.3,2.7,15.3,-1.0,13.8,3.8
NPYLR7 ag max-min,14.5,-1.7,8.9,-0.4,17.9,-3.4,13.2,3.2

17: CCOC(=O)C1(Cc2ccccc2)CCCN(Cc2ccc(OCC)c(CO)c2)C1 (stereo not drawn)
18: Cc1cccc(CN2CCN(C(c3ccccc3)c3ccc(Cl)cc3)CC2)c1 (stereo not drawn)
19: O=C(Nc1ccnn1C1CCN(Cc2ccc3c(c2)CCO3)CC1)C1CC1
20: COc1ccc(OC)c(N2CC(c3nc4ccccc4n3CCC(C)C)CC2=O)c1 (stereo not drawn)
21: O=C(NC1CC1)C1CCCN(C2CCN(Cc3ncccn3)CC2)C1 (stereo not drawn)
22: CCCCC(CC)C(=O)Nc1c(-c2ccc(F)c(F)c2)nc2ccccn12 (stereo not drawn)
23: CC(C)(C)c1ncc2c(n1)CN(C(=O)CCn1nnc3ccccc31)C2
24: COc1cccc(NC(=O)CCC2CCN(C(=O)c3sccc3C)CC2)c1
screen / no.,17,18,19,20,21,22,23,24
NPYLR7 ag,-6.0,-6.3&-1.4&-4.3&-4.5,3.0&0.8,-1.0,0.2,-1.8,-11.1,2.3
NPYLR7 ag max-min,-10.4,-11.4&-10.6&-7.2&-9.8,-0.1&-3.4,3.1,37.0,1.6,-19.4,0.3

25: C=CCn1c(=O)c2c(nc3n2CCN3c2ccccc2C)n(C)c1=O
26: CSCCC(=O)N1CCC(CCC(=O)NCC2CCCO2)CC1 (stereo not drawn)
27: COc1cccc2sc(=NC(=O)CCS(=O)(=O)c3ccc(F)cc3)n(C)c12
28: CCOC(=O)C(C)Oc1cc(Cl)c(C=O)cc1OC (stereo not drawn)
29: Cc1nc(SCc2ccc(C(=O)NCC(C)C)cc2)nc(N(C)C)c1C
30: CCCCc1nc(CN2CCCC2c2nncn2CC(C)C)no1 (stereo not drawn)
31: Brc1ccc(C2CC(c3ccccc3)n3nnnc3N2)cc1 (stereo not drawn)
32: CC(C)(C)CN1CC(NS(=O)(=O)c2ccc(F)cc2F)CC1=O (stereo not drawn)
screen / no.,25,26,27,28,29,30,31,32
NPYLR7 ag,-3.4,5.3,-2.9,-15.1,0.0,1.2,4.7,4.8
NPYLR7 ag max-min,-5.0,1.4,-5.9,-20.6,6.5,-3.7,2.9,3.0

33: O=C(NCCNc1nc(-c2ccco2)nc2ccccc12)Nc1ccc(C(F)(F)F)cc1
34: O=C(NCc1ccncc1)c1ccc(CSc2nc(-c3ccccc3)cc(N3CCCC3)n2)o1
35: O=S(=O)(NC(C1CC1)C1CC1)c1ccc2c(c1)CCC2
36: CCOC(=O)C(C)Sc1nc2c([nH]c3ccccc32)c(=O)n1-c1ccc(OC)cc1 (stereo not drawn)
37: Cc1cc(C(=O)N(Cc2ccccn2)c2nc3c(F)cccc3s2)no1
38: CCNC(=O)CC1CSc2nc(C)cc(=O)n21 (stereo not drawn)
39: CN(Cc1ccccc1Cl)Cc1nc2ccccc2c(=O)n1CC#N
40: O=S(=O)(CCS(=O)(=O)c1ccc(F)cc1)NCCc1ccccc1F
screen / no.,33,34,35,36,37,38,39,40
NPYLR7 ag,3.7,-2.7,7.7,0.4,-6.4,-3.1,20.9,-9.6
NPYLR7 ag max-min,13.6,9.5,9.9,38.6,-5.1,-5.9,19.0,-16.3

Rewritten with tabs: part of the list above.
No.	Structure	NPYLR7 ag	NPYLR7 ag max-min
22	CCCCC(CC)C(=O)Nc1c(-c2ccc(F)c(F)c2)nc2ccccn12 (stereo not drawn)	-1.8	1.6
23	CC(C)(C)c1ncc2c(n1)CN(C(=O)CCn1nnc3ccccc31)C2	-11.1	-19.4
24	COc1cccc(NC(=O)CCC2CCN(C(=O)c3sccc3C)CC2)c1	2.3	0.3
25	C=CCn1c(=O)c2c(nc3n2CCN3c2ccccc2C)n(C)c1=O	-3.4	-5.0
26	CSCCC(=O)N1CCC(CCC(=O)NCC2CCCO2)CC1 (stereo not drawn)	5.3	1.4
27	COc1cccc2sc(=NC(=O)CCS(=O)(=O)c3ccc(F)cc3)n(C)c12	-2.9	-5.9
28	CCOC(=O)C(C)Oc1cc(Cl)c(C=O)cc1OC (stereo not drawn)	-15.1	-20.6
29	Cc1nc(SCc2ccc(C(=O)NCC(C)C)cc2)nc(N(C)C)c1C	0.0	6.5
30	CCCCc1nc(CN2CCCC2c2nncn2CC(C)C)no1 (stereo not drawn)	1.2	-3.7
31	Brc1ccc(C2CC(c3ccccc3)n3nnnc3N2)cc1 (stereo not drawn)	4.7	2.9
32	CC(C)(C)CN1CC(NS(=O)(=O)c2ccc(F)cc2F)CC1=O (stereo not drawn)	4.8	3.0
33	O=C(NCCNc1nc(-c2ccco2)nc2ccccc12)Nc1ccc(C(F)(F)F)cc1	3.7	13.6
34	O=C(NCc1ccncc1)c1ccc(CSc2nc(-c3ccccc3)cc(N3CCCC3)n2)o1	-2.7	9.5
35	O=S(=O)(NC(C1CC1)C1CC1)c1ccc2c(c1)CCC2	7.7	9.9
36	CCOC(=O)C(C)Sc1nc2c([nH]c3ccccc32)c(=O)n1-c1ccc(OC)cc1 (stereo not drawn)	0.4	38.6
37	Cc1cc(C(=O)N(Cc2ccccn2)c2nc3c(F)cccc3s2)no1	-6.4	-5.1

(list continues)
41: CCOC(=O)C1CCN(CC(=O)N2N=C(c3ccccc3OC)CC2c2cc(C)ccc2C)CC1 (stereo not drawn)
42: Fc1ccc(-c2cc3c(nn2)Nc2ccccc2N3)cc1
43: CS(=O)(=O)c1ccccc1C(=O)NC1CCCCCCC1
44: C=CCn1c(SCC(=O)N(C)Cc2ccc(Br)cc2)nc2sc(C)c(C)c2c1=O
45: COc1ccc2[nH]c3c(c2c1)CCN(C(=O)COc1ccc(Cl)cc1)C3C(C)Cc1ccc2c(c1)OCO2 (stereo not drawn)
46: Cc1ccc(-c2cn(CC(=O)NCc3ccc(F)cc3)nc2N2CCOCC2)cc1
47: COCc1nc(C(=O)N(C)C(C)c2ccncc2)cs1 (stereo not drawn)
48: CC(C)CC(NS(=O)(=O)c1cccs1)C(=O)O (stereo not drawn)
screen / no.,41,42,43,44,45,46,47,48
NPYLR7 ag,0.8,-2.5,-7.2&-0.9,4.1,2.5,-7.9,4.6,2.8
NPYLR7 ag max-min,9.6,-2.7,-9.9&5.5,5.3,-2.9,-9.6,0.6,3.7

49: CCN(CC)c1ccc(C(=O)N2CCCN(C)C3(CCN(C)CC3)C2)cc1
50: CCCCCC(=O)N1[C@@H](c2ccccc2)[C@@H](C(=O)O)C[C@]12CCCCN(CCO)C2=O
51: COc1cc(OC)cc(-c2onc(C)c2C(=O)NCCCN2CCCCC2C)c1 (stereo not drawn)
52: COc1ccc(NCc2c(OC)ncnc2OC)cc1O
53: c1ccc(CNc2cc(-c3ccc(-n4cnnc4)nc3)c3cc[nH]c3n2)nc1
54: COC(=O)[C@H](C(C)C)N(C)C(=O)c1cnn(-c2ccc(C(F)(F)F)cc2)c1N
55: CCC(C)N(Cc1cc(Cl)ccc1OS(=O)(=O)c1ccc(NC(C)=O)cc1)C(=O)c1cccc(F)c1 (stereo not drawn)
56: Oc1ccccc1CN1CCCn2cccc2C1c1ccoc1 (stereo not drawn)
screen / no.,49,50,51,52,53,54,55,56
NPYLR7 ag,-0.4,0.1,5.5,3.3,22.4,-0.3,-5.4,-3.7
NPYLR7 ag max-min,-5.7,6.8,9.8,1.8,9.1,9.1,-1.4,8.3

57: COc1ccc(CNC(=O)N2CCN(S(=O)(=O)c3ccc(F)cc3)CC2)cn1
58: COc1ccc(CCNC(=O)CN2CN(c3ccccc3)C3(CCN(C(=O)Nc4ccccc4C)CC3)C2=O)cc1OC
59: CCC(Nc1ccc(Cl)cc1)C(=O)N1CCC2(CC1)CN(C)CCN2C (stereo not drawn)
60: CCC(CC)C(=O)N1CCC2(CC1)CN(Cc1nccn1CC)CCN2C
61: CCc1nn2c(=O)cc(Cn3cnc4c3c(=O)n(C)c(=O)n4C)nc2s1
62: CCCCCCCC(=O)N(CC(=O)N(Cc1ccc2c(c1)OCO2)Cc1cccs1)CC1CCCO1 (stereo not drawn)
63: CCCCCCCCCCCCCCC(C(=O)OC)C(O)(CC(=O)OC)C(=O)OC (stereo not drawn)
64: CC1ON=C(c2ccc(N(C)C)cc2)N(Cc2ccccc2F)C1=O (stereo not drawn)
screen / no.,57,58,59,60,61,62,63,64
NPYLR7 ag,13.6,13.3,16.3,0.1,4.9,-3.0,-6.4,8.5
NPYLR7 ag max-min,6.3,22.0,14.7,49.0,3.8,5.6,-11.3,3.3

65: CCCc1ccc(S(=O)(=O)Nc2ccc(CP(=O)(OCC)OCC)cc2)cc1
66: C=CCC(C)(C)CN1CCN(c2nnc(C(F)(F)F)s2)CC1
67: N#CC1C(=N)Oc2n[nH]c(-c3ccccc3)c2C1c1ccccc1I (stereo not drawn)
68: CCc1c(C)nc(SCC(=O)c2ccc(Br)cc2)c(C#N)c1C
69: O=C(NC1CCN(c2ccccc2C(=O)NC2CC2)CC1)c1cccc(F)c1
70: O=[N+]([O-])c1cnc2onc(-c3ccccc3)c2c1
71: O=C(Nc1nnc(SCc2ccccc2F)s1)c1cccc([N+](=O)[O-])c1
72: c1cc(-c2ccc3c(c2)CCO3)ccc1CNC1CCCC1
screen / no.,65,66,67,68,69,70,71,72
NPYLR7 ag,30.0,1.0,16.1,0.3,-3.9,-3.2,-4.8,3.1&-3.4
NPYLR7 ag max-min,32.0,-3.0,10.1,-3.2,3.5,-1.3,-7.0,-0.5&-5.5

73: CCCCC1(COC(=O)CCC(=O)O)C(=O)N(c2ccccc2)N(c2ccccc2)C1=O
74: COc1ccc(-c2cc(C(=O)NC3CCN(Cc4ccccc4)CC3)n3nc(C(C)(C)C)cc3n2)cc1
75: CCCCSc1nnc2c(n1)OC(c1ccc(Br)cc1)Nc1ccccc1-2 (stereo not drawn)
76: CN(C)CCN(C(=O)C1CCCCC1)c1nc2c(F)cc(F)cc2s1
77: COc1ccc(Oc2coc3c(CN(C)C)c(O)ccc3c2=O)cc1
78: O=C(Nc1ccnn1Cc1ccsc1)C1CC2CCC1C2 (stereo not drawn)
79: O=C(CCCc1ccccc1)Nc1ccc(Nc2cc(-n3cccn3)ncn2)cc1
80: CC(=O)NCCn1ccnc1-c1cc(C#CCO)cs1
screen / no.,73,74,75,76,77,78,79,80
NPYLR7 ag,-6.5&0.0,-11.9,0.4,-1.9,-10.5,0.0&-25.2,-3.8,26.4
NPYLR7 ag max-min,-7.0&-2.6,-12.2,-4.3,-2.1,-14.5,-2.3&-25.8,-10.7,20.4

81: CCCc1noc(CN2CCCCC2CCc2ccccc2)n1 (stereo not drawn)
82: CC(C)(Cc1c[nH]c2ccccc12)NC(=O)c1cccnc1Oc1ccccc1
83: CCOC(=O)N1CCN(C(=O)c2cc(COc3ccc(C)c(C)c3)on2)CC1
84: Cc1cccc(C(=O)Nc2nnc(CC(=O)N/N=C\c3ccc(O)cc3)s2)c1
85: Fc1ccc2c(c1)C(Nc1nccc(C(F)(F)F)n1)CCCO2 (stereo not drawn)
screen / no.,81,82,83,84,85
NPYLR7 ag,6.0,-15.0,-4.1,-3.0,6.8
NPYLR7 ag max-min,1.3,-19.7,-3.9,-8.2,4.6
